# Compound activity: PubChem, Broad Institute
# DUX4 inh – DUX4-mediated transcription inhibition. 293T-iDUX4 ZSCAN4-Gaussia luciferase reporter, 24 h; hits give low values. activity change, negative = inhibition, % (test concentration not listed). 0.8% of 37,000 active. AID 1224904;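 active = -10% or lower and over 25 points stronger than a control reporter; inconclusive = -10% or lower with a smaller gap; inactive = above -10%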;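 also: 0% = median of neutral control wells and -100% = median of positive control wells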
# DUX4 inh difference – further read-out of DUX4 inh, marked with its call; Gaussia minus Italica difference, %; measured here: selective DUX4 reporter inhibition;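 worked out from the two reporters; negative = selective loss of the DUX4 reporter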
# DUX4 inh control – further read-out of DUX4 inh, marked with its call; activity change, negative = inhibition, %; measured here: Italica tet-on control reporter;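 0 = neutral control and -100 = positive control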
# Numbers without * were called inactive; ? = inconclusive; · = no result given. This is a subset. The share of hits here may be higher or lower than overall.
# A first look, 3 compounds:
DUX4 inh control	DUX4 inh difference	DUX4 inh	SMILES
5.0	-1	4	CN1C(=O)c2cc(NC(=O)c3ccno3)ccc2OC[C@H]2O[C@@H](CC(=O)NCC(F)(F)F)CC[C@@H]21
-6.4	6	0	COc1ccc(S(=O)(=O)N2C[C@@H](O)COC[C@@H]3O[C@H](CC(=O)N[C@H]4CCN(Cc5ccccc5)C4)CC[C@H]32)cc1
-3.6	3	0	CNC[C@H]1[C@@H](c2ccc(C#CCC3CCCC3)cc2)[C@@H](CO)N1C(=O)C1CCC1

# All compounds of this part, from the start:
DUX4 inh control	DUX4 inh difference	DUX4 inh	SMILES
5.0	-1	4	CN1C(=O)c2cc(NC(=O)c3ccno3)ccc2OC[C@H]2O[C@@H](CC(=O)NCC(F)(F)F)CC[C@@H]21
-6.4	6	0	COc1ccc(S(=O)(=O)N2C[C@@H](O)COC[C@@H]3O[C@H](CC(=O)N[C@H]4CCN(Cc5ccccc5)C4)CC[C@H]32)cc1
-3.6	3	0	CNC[C@H]1[C@@H](c2ccc(C#CCC3CCCC3)cc2)[C@@H](CO)N1C(=O)C1CCC1
-0.2	-1	-1	CC(=O)N1[C@H](CO)[C@H](c2ccccc2)[C@H]1CN(C)C(=O)c1ccccc1F
·	·	?	O=C(C[C@H]1C[C@@H]2c3cc(NC(=O)c4ccc5c(c4)OCO5)ccc3O[C@@H]2[C@@H](CO)O1)NCc1ccc(Cl)cc1
9.3	1	11	COc1ccc2c3c(n(C)c2c1)[C@@H](CO)N(C(=O)C1CCOCC1)CC31CN(C)C1
0.3	-1	-1	COc1ccc(NC(=O)Nc2cccc3c2O[C@H](CN(C)C(=O)NC2CCCCC2)[C@@H](C)CN([C@H](C)CO)C3=O)cc1
3.1	-4	-1	COc1ccc(C[C@H]2CCn3cc(nn3)COC[C@H](c3ccccc3)NC2=O)cc1
2.5	-8	-5	O=C1CCC(=O)NCC/C=C/CCN1
·	·	?	C[C@H]1CN([C@@H](C)CO)C(=O)CCCn2nncc2CO[C@H]1CN(C)Cc1ccc(Oc2ccccc2)cc1
-4.0	3	-1	CCCN1[C@H](C(=O)N(C)C)[C@@H](CO)[C@@H]2Cn3c(ccc(-c4ccc(OC)cc4)c3=O)[C@@H]21
2.9	-5	-2	C[C@@H]1CN([C@@H](C)CO)C(=O)c2cc(C#CC3CC3)cnc2O[C@@H]1CN(C)Cc1ccccc1C(=O)O
2.7	-2	1	C[C@H](CO)N1C[C@H](C)[C@H](CN(C)C(=O)NC2CCCCC2)OCCCC[C@H](C)Oc2ccc(NC(=O)Cc3ccccc3)cc2C1=O
6.9	-4	3	C[C@H]1CN([C@@H](C)CO)C(=O)c2ccccc2-c2ccccc2CO[C@H]1CN(C)S(=O)(=O)c1cccs1
1.4	-4	-2	C[C@@H]1CN([C@H](C)CO)C(=O)c2cc(/C=C/c3ccccc3)cnc2O[C@H]1CN(C)C(=O)c1ccc2c(c1)OCO2
·	·	?	COc1ccccc1NC(=O)N1CC(=O)N2[C@H](CO)[C@@H](c3ccc(-c4ccc(F)cc4)cc3)[C@@H]2C1
3.0	-2	1	C[C@@H]1CN([C@H](C)CO)S(=O)(=O)c2ccc(C#CC3CCCC3)cc2O[C@H]1CN(C)C(=O)Cc1ccccc1
·	·	?	O=C(Nc1nccs1)[C@H]1[C@H](CO)[C@H]2Cn3c(ccc(-c4ccccc4)c3=O)[C@H]2N1CC1CCCC1
13	-1	12	O=C(NC1CCCC1)[C@@H]1[C@@H](CO)[C@@H]2Cn3c(ccc(-c4cccc(F)c4)c3=O)[C@H]1N2
0.8	-7	-6	O=C(C[C@@H]1C[C@H]2c3cc(NC(=O)C4CCC4)ccc3O[C@H]2[C@H](CO)O1)NCc1ccccn1
0.2	-3	-3	Cc1ccc(S(=O)(=O)N[C@H]2C=C[C@H](CC(=O)NC3CCCCC3)O[C@H]2CO)cc1
1.9	-1	1	COc1cccc(-c2cccc(-c3nc(C(=O)O)cc4c3[C@H](CCO)N(S(=O)C(C)(C)C)C4)c2)c1 (some centres not stated)
-2.3	4	1	CC(C)NC(=O)N1[C@H](C#N)[C@@H](c2ccc(-c3ccc(F)cc3)cc2)[C@H]1CO
8.5	2	11	CN(C)C(=O)c1ccc(-c2ccccc2[C@@H]2[C@@H](CO)N(C(=O)C3CC3)[C@H]2C#N)cc1
9.6	-9	0	O=C(c1ccc(F)cc1)N1CC[C@@H]2[C@H](CO)Nc3ccc(C#CC4CC4)cc3[C@@H]21
11	9	21	COc1ccccc1-c1ccccc1[C@@H]1[C@@H](CO)N(C(=O)CN(C)C)[C@H]1C#N
-49	64	15	COc1ccc(-c2ccc3c(c2)[C@H]2[C@H](CCN2C(=O)Cc2ccccc2)[C@H](CO)N3C)cc1
-3.0	6	3	CN(C)C(=O)C[C@@H]1CC[C@@H]2[C@H](COC[C@@H](O)CN2CC2CCOCC2)O1
-1.5	0	-2	C[C@H](CO)N1C[C@H](C)[C@@H](CN(C)C(=O)Cc2ccccc2)OCCCC[C@H](C)Oc2ccc(N(C)C)cc2C1=O
·	·	?	CO[C@H]1CN(C)C(=O)c2cc(NC(=O)c3ccc4c(c3)OCO4)ccc2OC[C@H](C)N(CCC(F)(F)F)C[C@@H]1C
-1.8	3	1	C[C@@H]1CN([C@@H](C)CO)C(=O)Cc2cc(NC(=O)Cn3cnnn3)ccc2O[C@@H]1CN(C)CC1CCCCC1
-0.7	4	4	C[C@H]1CN([C@@H](C)CO)C(=O)c2cc(NC(=O)CCCN(C)C)ccc2O[C@@H]1CN(C)Cc1ccc(Cl)c(Cl)c1
-0.3	1	1	Cc1ccc(S(=O)(=O)N(C)C[C@@H]2Oc3ncc(Br)cc3C(=O)N([C@@H](C)CO)C[C@@H]2C)cc1
5.7	-6	0	O=C(C[C@H]1C[C@@H]2c3cc(NC(=O)Nc4ccccc4F)ccc3O[C@@H]2[C@@H](CO)O1)NCc1ccncc1
1.1	-2	-1	CC(C)NC(=O)N(C)C[C@@H]1Oc2ccc(NC(=O)c3ccncc3)cc2C(=O)N([C@@H](C)CO)C[C@@H]1C
-3.0	4	1	C[C@@H]1CCCCO[C@@H](CN(C)C(=O)Nc2ccccc2)[C@H](C)CN([C@H](C)CO)C(=O)c2cc(NC(=O)Nc3ccccc3)ccc2O1
16	-9	7	O=C(NC1CCCCC1)N1CC2(C1)[C@H](c1ccccc1)[C@@H](CO)N2S(=O)(=O)Cc1ccccc1
-1.0	-4	-5	CO[C@@H](CN(C)S(=O)(=O)c1ccc(C)cc1)[C@H](C)CN([C@@H](C)CO)S(=O)(=O)c1cccc(Cl)c1
12	-15	-3	CN1c2ccc(Br)cc2[C@H]2[C@H](CCN2C(=O)Nc2cc(F)ccc2F)[C@H]1CO
-0.9	19	18	O=C(C[C@H]1C[C@H]2c3cc(NC(=O)NC4CCCC4)ccc3O[C@H]2[C@@H](CO)O1)NCc1cccc(F)c1
3.2	4	7	COCC(=O)N1CC2(C1)[C@H](c1ccccc1)[C@H](CO)N2C(=O)c1ccncc1
·	·	?	C[C@H](CO)N1C[C@H](C)[C@H](CN(C)S(=O)(=O)c2ccccc2C#N)OCc2ccccc2-c2c(n(C)c3ccccc23)C1=O
-5.1	-2	-7	C[C@@H]1CN([C@@H](C)CO)C(=O)c2cc(NC(=O)Nc3ccc4c(c3)OCO4)ccc2O[C@@H](C)CCCCO[C@@H]1CN(C)S(=O)(=O)c1ccccc1
4.6	3	7	Cc1ccccc1-c1ccc([C@@H]2[C@H]3CN(S(C)(=O)=O)CCCCN3[C@H]2CO)cc1
6.5	-9	-2	CO[C@@H]1CN(C)C(=O)c2ccc(NC(=O)Nc3cc(F)ccc3F)cc2OC[C@@H](C)N(C(=O)c2ccccn2)C[C@@H]1C
4.1	-4	0	COc1cccc(NC(=O)C[C@H]2CC[C@H]3[C@@H](COc4ccc(NC(=O)c5ccccc5F)cc4C(=O)N3C)O2)c1
14	-4	10	O=C(C[C@H]1CC[C@@H]2[C@H](COC[C@H](O)CN2C(=O)c2ccccc2)O1)NC1Cc2ccccc2C1
15	-2	13	CCCNC(=O)N1CC2(CCN(C(=O)Cc3cccnc3)CC2)c2c([nH]c3cc(OC)ccc23)[C@@H]1CO
-0.4	8	7	O=C([C@@H]1[C@@H](CO)[C@@H]2Cn3c(cccc3=O)[C@@H]2N1Cc1cocn1)N1CCC(Cc2ccccc2)CC1
-0.8	-1	-2	C[C@H](CO)N1C[C@H](C)[C@H](CN(C)CC2CCCCC2)OCCCC[C@H](C)Oc2ccc(NC(=O)Nc3ccc(C(F)(F)F)cc3)cc2C1=O
5.1	4	9	C/C=C/c1ccc([C@@H]2[C@@H](CO)N(C(=O)CC)C23CN(S(C)(=O)=O)C3)cc1
8.0	0	8	COc1ccc2c3c(n(C)c2c1)[C@H](CO)N(C)CC31CCN(CC2CC2)CC1
0.2	1	1	O=C(C[C@H]1CC[C@H](NC(=O)c2ccc(F)cc2)[C@@H](CO)O1)NCCc1ccccc1
-0.4	-3	-3	COCC#Cc1cnc2c(c1)C(=O)N([C@@H](C)CO)C[C@H](C)[C@H](CN(C)C(=O)c1ccc3c(c1)OCO3)O2
-5.0	4	-1	C[C@H](NC(=O)[C@H]1[C@H](CO)[C@H]2Cn3c(ccc(-c4ccccc4)c3=O)[C@H]2N1C)c1ccccc1
2.8	-1	1	C[C@H](CO)N1C[C@H](C)[C@@H](CN(C)Cc2ccc(Cl)c(Cl)c2)Oc2c(NC(=O)CCCCCC(=O)Nc3ccccc3N)cccc2C1=O
-0.4	3	2	CC(C)NC(=O)N(C)C[C@@H]1Oc2ccc(NC(=O)Cc3ccccc3)cc2CC(=O)N([C@H](C)CO)C[C@@H]1C
3.0	-2	1	COc1ccc([C@H]2CC=CC[C@H](C)Oc3ccccc3C(=O)N(C)[C@@H](C(C)C)C(=O)N2)c(OC)c1 (mixture of isomers)
-4.9	2	-3	CCCC#Cc1cnc2c(c1)C(=O)N([C@@H](C)CO)C[C@@H](C)[C@@H](CN(C)S(=O)(=O)c1cccc(OC)c1)O2
6.4	-13	-7	O=C(C1CCCC1)N1CC2(C1)[C@@H](c1ccccc1)[C@H](CO)N2Cc1ccccc1F

# At a glance, part of the list above:
DUX4 inh control	DUX4 inh difference	DUX4 inh	SMILES
4.1	-4	0	COc1cccc(NC(=O)C[C@H]2CC[C@H]3[C@@H](COc4ccc(NC(=O)c5ccccc5F)cc4C(=O)N3C)O2)c1
14	-4	10	O=C(C[C@H]1CC[C@@H]2[C@H](COC[C@H](O)CN2C(=O)c2ccccc2)O1)NC1Cc2ccccc2C1

# (continued)
DUX4 inh control	DUX4 inh difference	DUX4 inh	SMILES
-1.9	3	1	COCC#Cc1ccc2c(c1)O[C@H](CN(C)C(=O)c1ccccc1)[C@@H](C)CN([C@@H](C)CO)S2(=O)=O
-12	3	-9	COc1ccccc1CNC(=O)C[C@H]1C[C@@H]2c3cc(NC(=O)c4ccc5c(c4)OCO5)ccc3O[C@@H]2[C@@H](CO)O1
4.0	-1	3	CN1C[C@@H]2[C@H](c3ccccc31)[C@@H](CO)N2C(=O)Nc1cccc(F)c1
-2.4	1	-1	O=C(C[C@H]1C=C[C@H](NC(=O)CCN2CCCCC2)[C@H](CO)O1)NCc1ccc(Cl)c(Cl)c1
-2.3	-1	-4	CCCNC(=O)C[C@H]1CC[C@@H]2[C@H](COc3ccc(NC(=O)c4cc(F)cc(F)c4)cc3C(=O)N2C)O1
4.0	-7	-3	O=C([C@@H]1[C@@H](CO)[C@@H]2Cn3c(ccc(C4=CCCC4)c3=O)[C@H]1N2Cc1nccs1)N1CCCCC1
-0.4	-4	-4	O=C(NC1CCCCC1)N[C@@H]1CC[C@@H](CC(=O)N2CCOCC2)O[C@@H]1CO
2.2	-3	-1	CN(C)C(=O)C[C@H]1CC[C@@H]2[C@@H](COc3ccc(NC(=O)C4CCCCC4)cc3C(=O)N2C)O1
0.9	1	2	C[C@@H]1CCCCO[C@H](CN(C)C(=O)CCCN(C)C)[C@H](C)CN([C@@H](C)CO)C(=O)c2cc(NS(=O)(=O)c3ccc(Cl)cc3)ccc2O1
15	-13	2	CCCC#Cc1ccc([C@H]2[C@@H](CO)N3C(=O)CN(C(=O)c4ccc(F)cc4)C[C@@H]23)cc1
7.1	-5	2	C/C=C/c1ccc([C@H]2[C@H](CO)N3C(=O)CN(S(=O)(=O)c4ccccc4)C[C@@H]23)cc1
2.2	-4	-2	CN1C(=O)c2cc(NC(=O)c3cnccn3)ccc2OC[C@H]2O[C@H](CC(=O)N[C@H]3CCN(Cc4ccccc4)C3)CC[C@@H]21
0.3	-1	-1	CC(=O)N(C)C[C@H]1[C@H](c2ccc(-c3ccccc3F)cc2)[C@H](CO)N1C(C)=O
0.5	3	4	CO[C@H](CN(C)S(=O)(=O)c1ccc(C)cc1)[C@H](C)CN([C@H](C)CO)S(=O)(=O)c1cccc(Cl)c1
0.7	3	4	COc1ccccc1C#Cc1ccc([C@H]2[C@@H](C#N)N(C(=O)C3CC3)[C@H]2CO)cc1
2.8	-1	2	CCNC(=O)Nc1ccc2c(c1)C(=O)N(C)[C@@H]1CC[C@H](CC(=O)NCC3CC3)O[C@H]1CO2
3.9	-2	2	C[C@H](CO)N1C[C@H](C)[C@@H](CN(C)C(=O)Cc2ccccn2)Oc2cc(C#C[C@@H](C)O)ccc2S1(=O)=O
2.3	-1	1	O=C(C[C@H]1C=C[C@@H](NS(=O)(=O)c2cccc(F)c2)[C@H](CO)O1)N1CCCCC1

# Ordered by value in DUX4 inh difference (largest number first): 3 from the list above
DUX4 inh control	DUX4 inh difference	DUX4 inh	SMILES
0.7	3	4	COc1ccccc1C#Cc1ccc([C@H]2[C@@H](C#N)N(C(=O)C3CC3)[C@H]2CO)cc1
0.9	1	2	C[C@@H]1CCCCO[C@H](CN(C)C(=O)CCCN(C)C)[C@H](C)CN([C@@H](C)CO)C(=O)c2cc(NS(=O)(=O)c3ccc(Cl)cc3)ccc2O1
2.8	-1	2	CCNC(=O)Nc1ccc2c(c1)C(=O)N(C)[C@@H]1CC[C@H](CC(=O)NCC3CC3)O[C@H]1CO2
